Screening results (PubChem BioAssay)
Sa helicase inh: blocks Staphylococcus aureus DNA helicase; inhibition, %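 (tested at about 80 µM)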; actives 0.05% (n = 120,000); AID 485395; purified S. aureus helicase, fluorescence unwinding assay; about half of the hits fall short of the stated cut;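 active means both duplicates at 50% or more, or one of them with a favoured structure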;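 further: 0% = mean of negative control wells and 100% = mean of positive control wells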
MgrA-DNA mod: S. aureus MgrA-DNA binding modulation; fluorescence polarization; inhibition, %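 (about 10 µg/mL by stock and volumes)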; actives 0.13% (n = 84,000); AID 602314;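 active means above 50% in either of two replicates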;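 further: 0% = protein plus DNA without compound and 100% = DNA alone without protein; higher means less MgrA bound to DNA so lower polarization; one replicate is shown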
Starred values were filed as active, the others as inactive; . = no result given.

The first 6 entries, ahead of the listing:
Sa helicase inh	MgrA-DNA mod	compound
-13	.	CC1CCCCC1NC(=O)c1cc(=O)c2ccccc2o1 (stereo not drawn)
.	-1.1	C=CCSc1nnc(-c2ccc(C(F)(F)F)nc2C)o1
.	-0.9	O=C(O)c1ccccc1C(=O)Nc1ccc(-n2ccc(C(F)(F)F)n2)cc1
4	-1.6	O=C(Cc1ccccc1)NC1CCCCCC1
-4	.	CC(=O)Nc1ccc(-n2ccnc2P(=O)(O)c2ccccc2)cc1
11	2.8	Cc1ccccc1N/C(=N\S(=O)(=O)c1ccccc1)c1ccccc1

The list itself (from the top)
Sa helicase inh	MgrA-DNA mod	compound
-13	.	CC1CCCCC1NC(=O)c1cc(=O)c2ccccc2o1 (stereo not drawn)
.	-1.1	C=CCSc1nnc(-c2ccc(C(F)(F)F)nc2C)o1
.	-0.9	O=C(O)c1ccccc1C(=O)Nc1ccc(-n2ccc(C(F)(F)F)n2)cc1
4	-1.6	O=C(Cc1ccccc1)NC1CCCCCC1
-4	.	CC(=O)Nc1ccc(-n2ccnc2P(=O)(O)c2ccccc2)cc1
11	2.8	Cc1ccccc1N/C(=N\S(=O)(=O)c1ccccc1)c1ccccc1
10	7.1	Cc1c(Cl)cccc1N=C1NC(=O)/C(=C/c2ccco2)S1
9	3.4	CN=C1SC(CC(=O)Nc2cccc(C(=O)O)c2)C(=O)N1C (stereo not drawn)
-10	.	COc1ccccc1C(=O)Nc1cccc2nsnc12
.	-2.5	COCOc1ccc(C(=O)O)cc1OC
-19	.	O=C(CN1CCN(c2ccccc2)CC1)N1c2ccccc2CCc2ccccc21
-13	.	C=CCn1c(COc2ccc(Cl)cc2)nnc1SCC(=O)N1CC(=O)Nc2ccccc21
.	-1.8	NCCSc1ccc(F)cc1
-25	.	CCOC(=O)CSc1nnc(NC(=O)c2ccccc2)s1
-2	-1.0	C=CCNC(=O)C(C)N1CCN(C)CC1 (stereo not drawn)
8	.	O=C(CSc1nncn1-c1ccccc1)N1CCCC1c1ccc2c(c1)OCCO2 (stereo not drawn)
-4	.	O=C(Nc1ccccc1C(=O)N1CCc2ccccc2C1)c1ccccc1
-1	-0.7	N#Cc1c(NC(=O)C2CC(=O)NN2Cc2ccccc2)sc2c1CCCC2 (stereo not drawn)
15	.	Cc1cc(-n2cnc(-c3cn(C)nc3C)n2)no1
1	0.0	O=C(Cn1c(=O)c2cccn2c2ccccc21)NC1CCCC1
-16	-0.1	CCN(CC)NC(=S)Nc1ccccc1
7	0.7	CCc1ccc(C(=O)Nc2nccs2)cc1
1	1.3	O=C(CC1CCCC1)Nc1noc2ccccc12
.	25	O=c1cc2cc(O)[nH]c(=O)c2c(O)[nH]1
16	1.2	CC(Sc1ncnc2ccccc12)C(=O)Nc1cccc(Cl)c1 (stereo not drawn)
2	1.6	O=C1S/C(=C\c2cn(Cc3ccccc3)c3ccccc23)C(=O)N1CN1CCCCC1
.	2.2	Cc1csc(NC(=O)c2ccco2)c1C(=O)c1ccccc1
.	-1.2	O=C(OCc1ccc(C#Cc2ccccc2)s1)c1cccs1
.	-0.1	Clc1ccc(CSc2ncc(-c3ccc(Cl)cc3)[nH]2)cc1
8	.	CCOC(=O)c1cnc2c(F)ccc(F)c2c1Oc1cccnc1
10	-0.4	O=C(c1cc2c(s1)-c1ccccc1S(=O)(=O)C2)N1CCCC1
2	.	CC1(C)CC(=O)C2=C(C1)N=C1SCCC(=O)N1C2c1ccc(Br)cc1 (stereo not drawn)
.	1.1	O=C(O)Cc1ccccc1I
-3	0.9	O=C(COc1ccc(-c2ccccc2)cc1)Nc1cccnc1
10	-1.5	CCC1=CC(c2ccccc2)NC(=S)N1 (stereo not drawn)
1	.	O=C(O)/C=C/C(=O)Nc1ccc(OC(F)F)cc1
.	3.0	O=C(ON1C(=O)C2C3C=CC(O3)C2C1=O)c1ccc(Cl)s1 (stereo not drawn)
2	-2.1	COc1ccc(OC)c(NC(=O)c2ccc(CSc3nnnn3C)cc2)c1
-3	.	Cc1ccccc1C(=O)CC#N
2	0.5	Cc1cccc(NC(=O)OC2CCCCC2)c1
1	.	CCC(=O)Nc1ccc(C2=CSC3=NS(=O)(=O)CCN23)cc1
4	-1.6	CC1CC(NC(=O)c2ccc(Br)cc2)CC(C)(C)C1 (stereo not drawn)
7	.	CNC(=O)NC(=O)C(C)Sc1nc2sccc2c(=O)n1-c1ccccc1 (stereo not drawn)
.	-0.5	O=c1c2cc(NS(=O)(=O)c3ccc(Cl)cc3)ccc2oc2ncccc12
8	4.2	COc1cc(C(=O)ON=C2CCSCC2)cc(OC)c1OC
-8	.	O=C(NC(c1ccccc1)c1ccccc1)c1ccc(=O)[nH]c1
5	2.8	NC(=O)C1CCN(C(=S)Nc2ccc(Cl)cc2)CC1
11	.	O=C1CCN(C(=O)c2ccc(COc3ccccc3)cc2)CC1
15	.	N#Cc1ccccc1Cn1c(=O)n(C2CCCC2)c(=O)c2ccccc21
-17	.	COc1ccc(OC)c(S(=O)(=O)NC2CCCCC2)c1
-13	.	N#CCCN1C(=O)c2ccccc2C1=O
6	.	Cc1ccc(CC(C#N)Sc2nnc(C3CCCCC3)o2)cc1 (stereo not drawn)
3	0.9	CC(C)(C)NC(=S)NCCc1ccccc1
11	.	C=CCn1c(=N)n(CC(O)C(C)(C)C)c2ccccc21 (stereo not drawn)
-2	.	Cc1c(C(=O)OCC(=O)c2cccs2)oc2ccccc12
5	-1.4	COC(=O)c1ccc(-c2ccco2)n1CC(=O)c1ccccc1
15	.	CCCNC(=O)c1cc2sc(C)cc2n1C
13	4.5	O=C(CSc1nc2ccccc2c(=O)n1CCc1ccccc1)NCc1ccco1
-17	.	CCC(C)(C)C1CCc2sc3nc[nH]c(=O)c3c2C1 (stereo not drawn)
.	-3.8	NC(=O)c1ccc(OCc2ccccc2)cc1

Going on with the list.
Sa helicase inh	MgrA-DNA mod	compound
8	.	c1ccc2c(CCNc3ncnc4nc[nH]c34)c[nH]c2c1
3	.	Cc1cc(-c2ccc(C(C)C)c(S(=O)(=O)NCc3ccc(F)cc3)c2)on1
-7	-0.4	Cc1cc(S(=O)(=O)NC2CCCCC2)ccc1OCC(=O)NCC1CCCO1 (stereo not drawn)
15	.	C=CCNC(=O)c1cc(-c2ccco2)on1
13	-0.7	O=c1cc(NCc2ccco2)[nH]c(=O)n1-c1ccc(Br)cc1
16	4.5	Cc1ccc2c(Cl)c(C(N)=O)sc2c1
-233	.	CCCCN(C)C1=CC2=CC(=C(C#N)C#N)CCC2CC1 (stereo not drawn)
-6	.	O=C(c1ccc2cn[nH]c2c1)N1CCN(c2ccccc2)CC1
-1	.	COC(=O)c1ccc(COC(=O)c2ccc(CN3CCCC3=O)cc2)cc1
.	4.0	Nc1cccnc1Sc1nc2cccnc2s1
15	1.3	Cc1sc(-n2c(C)cc(/C=C3\SC(=S)NC3=O)c2C)c(C#N)c1C
5	0.1	CC1CCCN(C(=O)COC(=O)c2cccc(Cl)c2)C1 (stereo not drawn)
6	0.8	O=C(COc1ccc(S(=O)(=O)N2CCCc3ccccc32)cc1)Nc1ccc2c(c1)OCO2
.	-0.2	COc1cc(C2Nc3ccccc3NC3=C2C(=O)CC(c2ccc4c(c2)OCO4)C3)cc(OC)c1O (stereo not drawn)
28	.	Cn1/c(=N/S(C)(=O)=O)sc2ccccc21
1	.	O=C1CCC(C(=O)OCc2cccc3ccccc23)=NN1
16	.	O=C(Cn1cc2c(n1)CCCCC2)NCC1CCCO1 (stereo not drawn)
20	.	O=C(CSc1nnc(Cc2cccs2)n1C1CC1)Nc1ccc(Cl)cc1F
-2	.	O=C(CCc1nc2sc3c(c2c(=O)[nH]1)CCCC3)N1CCCCC1
4	-4.0	C/C(=C\C#N)CCc1ccccc1
30	.	O=C(C1CCN(c2nnc(-n3cccc3)s2)CC1)N1CCCC1
-3	.	CC(C)CC(=O)Nc1ccc(C(=O)NN)cc1
6	-2.2	CC(=O)NC1C(OCc2ccc(Cl)cc2Cl)OC(CO)C(O)C1O (stereo not drawn)
8	.	O=C(NC1CCCCC1)c1sc(=S)n2c1[nH]c(=O)c1ccccc12
13	1.9	COc1ccc(NC(=O)c2ccccc2NS(C)(=O)=O)cc1Cl
.	1.9	CC(=O)OCc1ccccc1Sc1ccccc1C(=O)Nc1ccccc1
-7	1.4	O=C(NCCCn1cccn1)C1CCC1
5	-0.4	Cc1cc(=O)oc2cc(OCC(N)=O)c(Cl)cc12
-3	.	CCOC(Cn1c(Cc2ccccc2)nc2ccccc21)OCC
-27	.	COc1ccc(CCNC(=O)c2cn[nH]c2C2CCNCC2)cc1OC

Another view of some results above:
canonical_smiles	Sa helicase inh	MgrA-DNA mod
COc1ccc(CCNC(=O)c2cn[nH]c2C2CCNCC2)cc1OC	-27	.
O=C(COc1ccc(S(=O)(=O)N2CCCc3ccccc32)cc1)Nc1ccc2c(c1)OCO2	6	0.8

The results go on:
Sa helicase inh	MgrA-DNA mod	compound
.	37	O=C(O)Cc1ccc(C(=O)CSc2nccc(-c3cccs3)n2)s1
.	3.4	Cn1ncc2c(N3CCCC3)ncnc21
4	.	O=C(N1CCOCC1)n1ccnc1
-15	.	O=C(OCC(=O)N(C1CCCCC1)C1CCS(=O)(=O)C1)C1CC1 (stereo not drawn)
9	2.8	CCOCc1cn(CC(=O)c2ccc(OC(C)=O)c(OC(C)=O)c2)c(C)nc1=N
17	-4.8	O=c1ccc2ccc(Oc3ncnc4scc(-c5ccc(F)cc5)c34)cc2o1
8	-0.6	Cc1cc(C(=O)NN2CCOCC2)nc2c1c(C)nn2-c1ccccc1
7	-0.7	CCOc1ccc(NC(=O)CSc2nnc(C)n2CC2CCCO2)cc1 (stereo not drawn)
.	0.6	COc1ccc(CCNC(=S)Nc2ccc(Cl)cc2Cl)cc1OC
10	.	Cc1cc2c(cc1S(=O)(=O)C(C)CC(=O)N1CCN(c3ccccc3F)CC1)OCC(=O)N2 (stereo not drawn)
12	-0.7	COc1ccc(C2c3cc4c(cc3OC3(O)CCCC(=O)C23)OCO4)cc1 (stereo not drawn)
3	9.9	COC(=O)C1=C(C)NC(=O)/C1=C/c1ccc(CNS(=O)(=O)c2ccc(Cl)cc2)o1
7	.	COc1ccc(S(=O)(=O)N2CC3(C)CC2CC(C)(C)C3)cc1 (stereo not drawn)
22	.	O=C(Cn1ncc2ccsc2c1=O)N1CCN(Cc2ccccc2)CC1
10	-1.1	CCOC(=O)c1c(NC(=O)CSc2nccn2C)sc2c1CCC(C)C2 (stereo not drawn)
1	.	CC(NC(=O)CN(C)Cc1cccs1)c1ccccc1 (stereo not drawn)
.	-3.1	N#CCc1cccc(CC#N)c1F
3	.	O=c1[nH]cnc2c(Cl)cc(Cl)cc12
12	.	Nc1nc(-c2ccc(N3CCOCC3)c(F)c2)cs1
-24	.	CC(C)(C)c1ccc(/C(N)=N/C(=O)N2CCOCC2)cc1
16	-1.0	O=C(O)c1cc2n(n1)C(C(F)(F)F)CC(C1CC1)N2 (stereo not drawn)
-17	.	CCNC(=O)CON=C1c2ccccc2-c2ccccc21
10	20	COc1cc(C=C2C(=O)NC(=S)NC2=O)ccc1OCC(=O)O
9	0.5	CC(C)C1=NN2C(=N)/C(=C/c3ccccc3)C(=O)N=C2S1
5	.	CN1CCN(CP(=O)(N2CCCCC2)N2CCCCC2)CC1
-7	.	CCOC(=O)c1cc2c(C(F)(F)F)cc(C(F)(F)F)nc2s1
-12	.	Cc1cccc(N2NC(=O)/C(=C/c3ccc4c(c3)n(C)c(=O)n4C)C2=O)c1
9	5.8	CCN1/C(=C2/SC(=S)NC2=O)Sc2ccccc21
-10	0.2	CCOc1ccc(N=C2C(=O)Nc3ccc(C)c(Br)c32)cc1
.	4.4	COC(=O)C1CCC(=O)C(C(=O)OC)C1 (stereo not drawn)

Full records from above:
COC(=O)C1CCC(=O)C(C(=O)OC)C1 (stereo not drawn) is listed with Sa helicase inh = .; MgrA-DNA mod = 4.4
CCN1/C(=C2/SC(=S)NC2=O)Sc2ccccc21 is listed with Sa helicase inh = 9; MgrA-DNA mod = 5.8
Cc1cc2c(cc1S(=O)(=O)C(C)CC(=O)N1CCN(c3ccccc3F)CC1)OCC(=O)N2 (stereo not drawn) is listed with Sa helicase inh = 10; MgrA-DNA mod = .

Retrieved by compound from above, 4 records:
Sa helicase inh	MgrA-DNA mod	compound
9	2.8	CCOCc1cn(CC(=O)c2ccc(OC(C)=O)c(OC(C)=O)c2)c(C)nc1=N
-24	.	CC(C)(C)c1ccc(/C(N)=N/C(=O)N2CCOCC2)cc1
10	.	Cc1cc2c(cc1S(=O)(=O)C(C)CC(=O)N1CCN(c3ccccc3F)CC1)OCC(=O)N2 (stereo not drawn)
22	.	O=C(Cn1ncc2ccsc2c1=O)N1CCN(Cc2ccccc2)CC1

New compounds follow
Sa helicase inh	MgrA-DNA mod	compound
11	.	c1ccc(C2C/C(=N\N3CCOCC3)c3ccccc3O2)cc1 (stereo not drawn)
.	-0.2	C/C=C/c1ccc(OC)cc1
.	20	COC(=O)COc1ccc(/C=C2\C(=O)NC(=S)N(c3ccc(C(C)C)cc3)C2=O)cc1OC
-5	.	CN(C)c1cccc(C(=O)NCCc2c[nH]c3ccccc23)c1
-4	-8.2	CCc1onc(C)c1C(=O)O
8	0.7	Cc1ccc(C(=O)N2CC3(C)CC2CC(C)(C)C3)cc1 (stereo not drawn)
4	-2.0	O=C(Nc1ccccc1Cl)c1cc(-c2cccs2)nc2ccccc12
.	29	Cc1cc2ncc(-c3ccn(S(=O)(=O)c4ccc(Cl)cc4)c3)nc2cc1C
28	-1.1	Cc1cnc(NCCc2ccccc2)s1
5	.	CCOC(=O)c1ccc(COC(=O)CCc2nc3ccccc3[nH]c2=O)cc1
15	.	COc1cc2c(cc1OC)-c1nnc(C)n1C1(CCCC1)C2
-2	.	Cc1csc(=O)n1CCC(=O)OCN1C(=O)c2ccccc2C1=O

This is a subset, so the mix of outcomes need not match the whole.
